VDR inhibitor: vitamin D3 receptor (human) inhibition; P11473; VDR-SRC2-3 peptide fluorescence polarization, 2 h; Potency, µM, inactives show max response, negative = inhibition, most hits filed as inhibitors; 0.93% of 400,000 active; active = well fitted inhibition curve with a large enough effect; inconclusive = small, poorly fitted or top-dose-only effect, or another doubt; inactive = no such curve, though single readings can be large or run the other way; note: series mostly up to about 120 µM
Target sequence (P11473 whole entry, looked up): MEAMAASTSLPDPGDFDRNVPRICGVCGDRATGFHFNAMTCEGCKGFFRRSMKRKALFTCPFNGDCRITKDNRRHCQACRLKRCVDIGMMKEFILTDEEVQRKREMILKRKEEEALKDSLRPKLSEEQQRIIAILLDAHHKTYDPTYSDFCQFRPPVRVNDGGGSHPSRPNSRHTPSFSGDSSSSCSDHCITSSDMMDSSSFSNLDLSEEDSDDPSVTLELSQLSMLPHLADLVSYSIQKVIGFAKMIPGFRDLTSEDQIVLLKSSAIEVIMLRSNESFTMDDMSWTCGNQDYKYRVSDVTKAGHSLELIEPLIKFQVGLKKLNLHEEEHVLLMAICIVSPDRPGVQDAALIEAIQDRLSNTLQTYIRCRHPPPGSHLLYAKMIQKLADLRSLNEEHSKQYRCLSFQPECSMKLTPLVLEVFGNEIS
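Fluorescence polarization assay of small-molecule disruption of VDR binding to coregulator peptide SRC2-3. Compounds and controls pin-transferred, then read after 2 h incubation at ambient room temperature.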
Numbers without * were called inactive; ? = inconclusive; & = joins results of further samples. % is set by controls: 0 for no effect and ±100 for the full control effect; potency is the fitted concentration of half-maximal effect. Only part of the results is shown; the hit share may differ from the screen's.

VDR inhibitor,structure
-17.2%,COc1cccc(C2=NOC(C(=O)Nc3ccc4c(c3)OCO4)C2)c1OC (stereo unspecified)
-9.7%,Cc1ccccc1OC(=O)c1nc(SCc2ccccc2F)ncc1Cl
-2.6%,O=C(N1CCN(c2ccccn2)CC1)C(Cl)(Cl)Cl
-24.1%,Cc1ccccc1C(=O)NC(C(=O)Nc1nc2c(s1)CCCC2)C(C)C (stereo unspecified)
-3.7%,CN1C(=O)c2ccccc2C(C(=O)NCc2ccco2)C1c1c[nH]c2ccccc12 (stereo unspecified)
1.7%,COc1ccc(Cl)cc1Nc1ncnc2c1c(-c1ccccc1)cn2-c1ccccc1
3.6%,Cc1ccc2oc(=O)c3cnn(CC(=O)N(CCCN4CCOCC4)Cc4ccco4)c3c2c1
-5.1%,COc1ccc(OC)c(NC(=O)CCNS(=O)(=O)c2cc(Br)cnc2N)c1
5.4%,Cc1ccc(-n2ncc3c(NCCc4ccccc4)ncnc32)cc1Cl
-1.1%,CCC1CCCCN1S(=O)(=O)c1ccc(C(=O)N(CCCN(C)C)c2nc3cc4c(cc3s2)OCO4)cc1 (stereo unspecified)
-26.5%,CCOC(=O)C1CCN(c2cc3c(cc2NC(=O)c2ccccc2Br)n(C)c(=O)n3C)CC1
-25.7%,Cc1cc(C(=O)OCC(=O)Nc2ccccc2Br)c(C)o1
-7.8%,COc1ccc(C)cc1NC(=O)C(=O)NNC(=O)c1ccco1
3.6%,Cc1ccc(OCCSc2nc(N)cc(N)n2)cc1
-20.1%,Cc1nn(C(C)C(=O)NCCCN2CCCCCC2)c(=O)c2c1sc1ccccc12 (stereo unspecified)
-4.9%,COc1ccc(NC(=O)CN2CCN(c3ccc(Cl)cc3)CC2)c(OC)c1
6.6%,CN(C)C(CNC(=O)c1cccc(S(=O)(=O)NCc2ccccc2)c1)c1ccco1 (stereo unspecified)
-6.3%,CCCn1nc(C(=O)NCCc2ccc(S(N)(=O)=O)cc2)c2ccccc2c1=O
-11.0%,N#CC1(NC(=O)CN2CCN(S(=O)(=O)c3ccccc3F)CC2)CCCC1
8.6%,CCCSc1ncc(Cl)c(C(=O)Nc2ccc(S(=O)(=O)N3CC(C)OC(C)C3)cc2)n1 (stereo unspecified)
17.1%,COc1ccc(-c2[nH]c(-c3cccc(OC)c3)nc2SCC(=O)Nc2ccc3c(c2)OCO3)cc1
16.8%,Cc1ccc(C2(C)NC(=O)N(CC(=O)c3ccc4c(c3)OCCO4)C2=O)cc1 (stereo unspecified)
-9.0%,CC1CCCCC1NC(=O)COC(=O)COc1ccccc1F (stereo unspecified)
1.12µM*,C=Cc1c(C)c2cc3nc(cc4[nH]c(cc5nc(cc1[nH]2)C(C)=C5CCC(=O)O)c(CCC(=O)OC)c4C)[C@@]1(C)C3=CC=C(C(=O)OC)[C@H]1C(=O)OC (tested in a mixture with another compound)
4.6%,CNC(=O)NC(=O)COc1c(F)c(F)cc(F)c1F
7.1%,Cc1cccc(N2CCN(C(=O)CCS(=O)(=O)c3ccc(Br)cc3)CC2C)c1 (stereo unspecified)
-2.4%,Cc1ccc(-c2cc(C3C4C=CCC(C)C4C(=O)N3Cc3ccccc3)ccc2F)cc1 (stereo unspecified)
-10.9%,CCn1c(SCC(=O)Nc2c(C#N)cnn2-c2ccccc2)nnc1-c1cccs1
-20.7%,Cc1ccc(CNC(=O)C2(S(=O)(=O)c3ccccc3)CC=CC2)cc1
7.5%,Clc1cc2nc(-c3cccnc3Cl)[nH]c2cc1Cl
1.6%,O=C(CN1CCN(C(=O)C2CCCO2)CC1)Nc1ccc(Br)cc1 (stereo unspecified)
10.0%,CCCn1c2ccccc2c2cnn(CC(=O)NCCc3ccccc3)c(=O)c21
-14.5%,O=c1c(-c2nn[nH]n2)coc2ccc(Cl)cc12
2.5%,O/C(=C\c1ccc2ccccc2n1)c1ccc(O)cc1O
-1.0%,Cc1ccc(-c2cc(=O)[nH]c(NCc3ccccc3)n2)cc1
-5.2%,CC(C)CCN1CCC(CN2CCNC(=O)C2=O)CC1
2.1%,CCOc1ccc2cc(C(=O)c3ccccc3)c(=O)oc2c1
20µM*,CN(C)S(=O)(=O)c1ccc(C(=O)/C=C/c2cccnc2)cc1
12.8%,COc1cc(C(=O)Nc2ccc(NC(=O)c3ccccc3Cl)nc2)cc(OC)c1OC
-2.0%,COc1ccc(N2CCN(C(=O)CSc3nc4c(c(=O)n(C)c(=O)n4C)n3C(C)C)CC2)cc1
5.3%,COc1ccc2ccccc2c1/C=N/NC(=S)NCCN1CCOCC1
-15.4%,COc1ccc(CCNC(=O)CCCn2c(=O)c3ccccc3n(Cc3ccccc3)c2=O)cc1OC
-2.1%,CC(C)c1ccc(NC(=O)CNCC(c2ccccc2)N(C)C)cc1 (stereo unspecified)
-12.0%,COc1cc(/C=C/c2ccc(/C=C/c3cc(OC)c(OC)c(OC)c3)cc2)cc(OC)c1OC
?,Cc1noc(/C=C/c2nn(C)cc2Cl)c1[N+](=O)[O-]
-6.5%,CCc1ccc(NC(=O)Cn2ccn(-c3ccc(OC)cc3)c(=O)c2=O)cc1
4.6%,COc1ccc(-c2nnc(SCC(=O)Nc3cccc(C)c3)s2)cc1
13.1%,COc1ccccc1CC(=O)Nc1ccc2c(c1)OC1(CCCC1)O2
-14.3%,COc1ccccc1CNC(=O)CCn1c(=O)c2ccccc2n(CC(=O)Nc2ccc(C)cc2Cl)c1=O
10.1%,O=C(O)CCC(=O)N1CCc2cc(S(=O)(=O)NC3CCCC3)ccc21
3.6%,Cc1nc(N2CCN(C(=O)c3ccco3)CC2)nc2c1C(=O)CCC2
-3.1%,O=S1(=O)N=C(Oc2cccc3ccccc23)c2ccccc21
-12.8%,C#CCOCCOCCOCCNc1nc(N2CCOCC2)nc(N2CCN(C(=O)[C@H](CCCCN)n3cc(CCC(=O)O)nn3)CC2)n1
70.8µM*,O=C(O)CN1C(=O)/C(=C\c2cc(Br)ccc2OCc2ccc(F)cc2)SC1=S
29.2%,COc1ccc(Cc2c(C)nc(N)nc2Cl)cc1
14.4%,CCN(CCCNC(=O)C1CCC(=O)N1C(C)C)c1cccc(C)c1 (stereo unspecified)
4.8%,Cc1ccc(-c2cc(-c3ccco3)c(C#N)c(=O)[nH]2)cc1
-1.3%,N#Cc1ccc(-c2ccccc2)nc1Sc1ccc(F)cc1
-1.7%,CCCCN(CC)CCNC(=O)c1nn(C)c2c1CS(=O)(=O)c1ccccc1-2
4.8%,CC(=O)N=c1scc(-c2ccccc2)n1-c1cccc(O)c1

Looked up above:
Under VDR inhibitor, COc1cccc(C2=NOC(C(=O)Nc3ccc4c(c3)OCO4)C2)c1OC (stereo unspecified) has -17.2%
Under VDR inhibitor, CCOc1ccc2cc(C(=O)c3ccccc3)c(=O)oc2c1 has 2.1%

Structures shown so far that contain a cyano group, in the order listed:
VDR inhibitor,structure
-11.0%,N#CC1(NC(=O)CN2CCN(S(=O)(=O)c3ccccc3F)CC2)CCCC1
-10.9%,CCn1c(SCC(=O)Nc2c(C#N)cnn2-c2ccccc2)nnc1-c1cccs1
4.8%,Cc1ccc(-c2cc(-c3ccco3)c(C#N)c(=O)[nH]2)cc1
-1.3%,N#Cc1ccc(-c2ccccc2)nc1Sc1ccc(F)cc1

Later entries.
VDR inhibitor,structure
16.2%,CCC(NS(=O)(=O)c1cnn(CC)c1)c1ccccc1 (stereo unspecified)
-25.2%,CSc1ncccc1C(=O)OCC(=O)N1CCCC1
15.0%,CCC(=O)Nc1cccc(NC(=O)COc2ccc(OC)cc2)c1
-3.7%,NC(=O)[C@@H]1CCCNc2c(I)cc([N+](=O)[O-])cc2C(=O)N[C@@H](CO)C(=O)N[C@@H](Cc2ccc(O)cc2)C(=O)N1
-2.7%,Cc1cc(C(c2cc(C)c(N)c(C)c2)c2ccco2)cc(C)c1N
-9.8%,CCOC(=O)c1c(NC(=O)CSc2ccccc2C(=O)O)sc(C)c1C
11.4%,COc1ccc(Cl)cc1NC(=O)CCCn1c(C)c2cnn(-c3ccccc3)c(=O)c2c1C
-9.1%,O=C(N/N=C/c1ccc(O)cc1)NC12CC3CC(CC(C3)C1)C2
16.3%,Cc1cc(C)c2c(CC(=O)NN(C)C)coc2c1
-0.2%,COc1cc(C(=O)O[C@H]2C/C(C)=C/CC/C(C)=C/[C@@H](O)C2C(C)C)ccc1O (stereo partly specified)
7.5%,CCC(C(=O)N1CCc2ccccc2C1)n1nc(C)n2c(cc3occc32)c1=O (stereo unspecified)
-12.3%,O=C1NC(=O)C2C3c4ccccc4C(c4ccccc43)C12 (stereo unspecified)
12.7%,FC(F)(F)c1cccc(OCCN2CCN(Cc3ccccc3)CC2)c1
-21.7%,CCCCCC(C)NC(=O)c1ccoc1C (stereo unspecified)
1.1%,COc1ccc(Cc2nc3ccc(C(=O)NCCn4cccn4)cc3o2)cc1
-18.7%,O=C(Cn1cnc2c(nnn2-c2ccccc2)c1=O)N1CCC(Cc2ccccc2)CC1
12.6%,CCNC(=O)O/N=C1\CCCCC1c1ccc([N+](=O)[O-])cc1[N+](=O)[O-] (stereo unspecified)
-0.6%,CCC1=C(c2cc(OC)c(OC)c(OC)c2)C2(CCCC2)C(=O)O1
?,CCCN(CCC)C(=O)Cn1c(=O)c2sccc2n2c(=S)sc(-c3ccccc3)c12
-7.1%,CCCN(CC1CC1)S(=O)(=O)c1ccc(S(N)(=O)=O)cc1
-19.3%,O=c1c2ccccc2nnn1CSc1ncnc2ccccc12
-5.9%,COc1ccc(Cl)cc1NS(=O)(=O)c1c(C)[nH]c(C)c1C(=O)N1CCCCC1
4.0%,COc1ccc(-c2nnc3n2CCCCC3)cc1
17.3%,CCc1nn(C(C)C(=O)NCCc2ccccc2)c(=O)c2cc3occc3n12 (stereo unspecified)
-10.9%,CCc1ccc(N2CC(C(=O)OCC(=O)Nc3cc(C)on3)CC2=O)cc1 (stereo unspecified)
5.3%,CSc1ncc(C(=O)N2CCN(c3ccc(F)cc3)CC2)c(C)n1
-4.6%,O=C(COC(=O)CCCSc1nc2ccccc2[nH]1)NC(=O)NC1CCCC1
-1.6%,Cc1ccc(NC(=O)Cn2c(=O)n(CCCCC(=O)NCc3ccc4c(c3)OCO4)c(=O)c3ccccc32)cc1
0.2%,CCCCn1c(O)c(N=NC(=O)c2ccncc2)c2cc(Br)ccc21
12.5%,COc1ccc(NS(=O)(=O)c2cn(C)cn2)cc1Cl

A draw from above in order of length of the SMILES, ascending:
VDR inhibitor,structure
-0.6%,CCC1=C(c2cc(OC)c(OC)c(OC)c2)C2(CCCC2)C(=O)O1
-10.9%,CCc1ccc(N2CC(C(=O)OCC(=O)Nc3cc(C)on3)CC2=O)cc1 (stereo unspecified)
12.6%,CCNC(=O)O/N=C1\CCCCC1c1ccc([N+](=O)[O-])cc1[N+](=O)[O-] (stereo unspecified)

Two of these compounds, reformatted.
smiles | VDR inhibitor
CCCCn1c(O)c(N=NC(=O)c2ccncc2)c2cc(Br)ccc21 | 0.2%
COc1ccc(NS(=O)(=O)c2cn(C)cn2)cc1Cl | 12.5%

Other records:
VDR inhibitor,structure
14.5%,CCCCc1[nH]c(=O)c(C#N)c2c1CCCC2
7.9%,COc1ccccc1CNC(=O)C(=O)c1cn(CC(=O)N2CCOCC2)c2ccccc12
10.3%,C(=Cc1c[nH]c2ccccc12)c1nccc2ccccc12
7.8%,CCOc1ccc(CCNC(=O)c2[nH]c(C)c(C(C)=O)c2C)cc1OCC
-16.6%,O=C(C1CC=CCC1)N1CCN(S(=O)(=O)c2ccc(F)cc2)CC1 (stereo unspecified)
-4.5%,COc1ccccc1-c1cc(-c2cc(Cl)ccc2O)n[nH]1
-7.0%,O=c1oc2ccccc2cc1-c1cn2cc(Cc3ccc(Cl)cc3)sc2n1
-1.9%,CC(OC(=O)CCNS(=O)(=O)c1ccccc1)C(=O)Nc1ccc(S(=O)(=O)N2CCCCC2)cc1 (stereo unspecified)
3.4%,COc1ccc(C(C)=O)cc1COC(=O)CCNS(=O)(=O)c1ccc(C(C)=O)cc1
-6.1%,CCCN1C2CCCC1CC(NC(=O)c1ccccc1OC)C2 (stereo unspecified)
19.3%,Cc1cccc(Nc2nnc(SC/C(O)=C(\C#N)c3nc4ccccc4[nH]3)s2)c1C
-16.3%,CCCCCCOC(=O)C(C#N)c1nc2ccccc2nc1N1CCN(CC)CC1 (stereo unspecified)
3.8%,C[C@]12C(=O)N(c3ccc(Cl)cc3)C(=O)N1[C@@H]1c3ccccc3OC[C@@H]1[C@H]2c1ccccc1
-19.0%,Cc1ccccc1NC(=O)Cn1nnc(C(=O)NCc2cccs2)c1N
12.1%,O=C(CN1C(=O)c2ccccc2S1(=O)=O)N1CCOCC1
8.4%,Cc1ccc(/C=C/c2nc3ccccc3s2)s1
-4.0%,CC(C)C[C@@H](CO)N1CCN(CCCc2ccccc2)CCC1=O
?,CC(=O)n1nc(-c2ccc(Cl)cc2)nc1NCc1ccco1
-9.6%,Cc1ccc(S(=O)(=O)NCC(C)NS(C)(=O)=O)cc1 (stereo unspecified)
-26.9%,COC(=O)c1cccc(-c2ccc(C(c3c(C)[nH][nH]c3=O)c3c(C)[nH][nH]c3=O)o2)c1
-29.5%,CCc1nnc(NS(=O)(=O)c2ccc(NC(=S)NC(=O)/C=C/c3ccccc3)cc2)s1
4.8%,Cc1cc(C)n(C(=O)CNC(=O)Cc2ccccc2)n1
-16.5%,O=c1c2c3c(sc2nc2n1CCCCC2)CCCC3
-11.7%,O=C1C(Cc2cccc([N+](=O)[O-])c2)S/C(=N/N=C/c2ccco2)N1c1ccccc1 (stereo unspecified)
-11.4%,COc1cccc(CNC(=O)c2n[nH]c3ccccc23)c1
-20.3%,Cc1ccsc1C(=O)N1CCCC(CCC(=O)NCc2ccc(F)c(F)c2)C1 (stereo unspecified)
29.2%&15.9%,COc1ccc(-n2cnc3cc(C(=O)NC4CCCC4)ccc32)cc1
3.7%&-3.9%,C1CCN2C[C@H]3C[C@H](CN4CCCCC34)C2C1 (stereo partly specified)
8.1%,Cc1ccc(C(=O)C(C)OC(=O)c2cc3cc([N+](=O)[O-])ccc3oc2=O)cc1 (stereo unspecified)
-5.3%,CCC(C)NC(=O)C1c2ccccc2C(=O)N1Cc1ccccc1 (stereo unspecified)
